Assay outcomes from PubChem.
RGS16-Gao – regulators of human RGS16-Galphao interaction; O15492+P09471; bead-based flow cytometry RGS16-Galphao binding, fluorescence; actives lie on both sides; binding response (% of control), % at 10 µM; hit rate 0.38% among 220,000;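 active = below 25% or above 175%, edge rows of some plates excepted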;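 note: Galphao activated by GDP with aluminum fluoride before binding; 100% = wells without compound and 0% = beads without RGS; some results beyond the cut were filed as inactive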
Target sequence (O15492 whole entry, looked up): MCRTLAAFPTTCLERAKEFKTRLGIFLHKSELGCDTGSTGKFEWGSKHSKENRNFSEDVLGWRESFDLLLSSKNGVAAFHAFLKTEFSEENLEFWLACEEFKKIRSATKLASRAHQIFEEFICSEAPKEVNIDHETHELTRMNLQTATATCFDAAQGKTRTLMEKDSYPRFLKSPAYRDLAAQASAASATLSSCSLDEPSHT
Target sequence (P09471 whole entry, looked up): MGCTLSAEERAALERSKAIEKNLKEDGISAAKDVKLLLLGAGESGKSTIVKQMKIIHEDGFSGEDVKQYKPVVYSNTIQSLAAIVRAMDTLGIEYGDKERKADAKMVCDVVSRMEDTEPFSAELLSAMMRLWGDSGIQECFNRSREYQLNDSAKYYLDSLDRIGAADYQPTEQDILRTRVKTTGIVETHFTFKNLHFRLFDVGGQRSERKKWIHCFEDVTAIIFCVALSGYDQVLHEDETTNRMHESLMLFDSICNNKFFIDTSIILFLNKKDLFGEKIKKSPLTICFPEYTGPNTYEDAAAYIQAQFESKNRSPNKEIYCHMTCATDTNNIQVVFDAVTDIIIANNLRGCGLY
Insulin prom inh – TRM-6 insulin promoter activity inhibition | hit rate 0.9% among 130,000 | TRM-6 cells (human fetal islet line), insulin promoter-eGFP reporter, imaging; reporter expression induced with tamoxifen | AID 1273 | inhibition, % at 2 µM;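 active = inhibition above the mean plus 3 SD, with well images judged a real hit on visual review, cut at about 60% in these data, passing the limit was not always enough; inconclusive = inhibition over the cutoff but images rejected on review; inactive = inhibition not above the cutoff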
GALR2 agonist – GALR2 (human) receptor agonism. O43603. GALR2-expressing cells, agonist activation read-out. activation, %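 (tested at 5 µM)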. hit rate 0.48% among 140,000;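 active = above mean plus 3 SD of all compounds, about 5% in these data, not always enough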;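 note: 0% = vehicle buffer wells and 100% = reference agonist at full effect; tested in CHO reporter cells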
Target sequence (O43603 whole entry, looked up): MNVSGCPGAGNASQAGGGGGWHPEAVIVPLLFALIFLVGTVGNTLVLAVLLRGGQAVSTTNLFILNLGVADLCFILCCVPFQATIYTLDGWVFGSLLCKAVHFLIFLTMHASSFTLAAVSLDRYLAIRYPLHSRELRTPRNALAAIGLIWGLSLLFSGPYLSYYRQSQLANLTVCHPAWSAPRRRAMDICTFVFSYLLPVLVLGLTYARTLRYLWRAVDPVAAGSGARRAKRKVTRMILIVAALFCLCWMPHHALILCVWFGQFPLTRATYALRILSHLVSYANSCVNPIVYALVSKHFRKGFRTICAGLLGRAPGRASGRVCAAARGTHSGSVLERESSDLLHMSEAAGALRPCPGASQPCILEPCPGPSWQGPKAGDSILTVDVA
HSV replic up – increases HSV replication in cells. AID 1956. HSV replication augmentation in cells, fold increase. maximum fold increase. hit rate 0.005% among 220,000;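 active = peak rise of 1.5-fold or more in the series; inconclusive = self-fluorescent or not available for retest; tested in PC3 cells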;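 note: first round at 10 µM; read as green reporter fluorescence; hits show the peak of a series up to 25 µM; 1 = signal of infected wells without compound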
PKD1 kinase inh – blocks activity of human protein kinase D1; Q15139; PKD1 kinase fluorescence polarization assay; AID 797; inhibition, %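 (about 10 µM by stock and volumes)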; hit rate 0.056% among 200,000;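 active = inhibition of 50% or more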;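 note: controls were vehicle for no effect and a reference inhibitor for full effect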
Insulin prom inh cell count – recorded beside Insulin prom inh, whose call it bears; normalized cell count, %; measured here: cell count, toxicity; reference of the scale not given here;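 cells exposed to compound for 48 h; stained nuclei by imaging scaled within each plate; lower means fewer cells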
HSV replic up primary fold – recorded beside HSV replic up, whose call it bears; fold increase; compound at 10 µM; measured here: primary screen fold increase 10 uM; tested in PC3 cells;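 GFP signal in the first replicate; 1 = infected wells without compound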
Active calls of the source: *; i = inactive; ? = inconclusive; / = not tested or not shown.

SMILES | RGS16-Gao | Insulin prom inh | Insulin prom inh cell count | GALR2 agonist | HSV replic up | HSV replic up primary fold | PKD1 kinase inh
COc1cccc(C(=O)CN2CCC(NC(=O)NC3CCCCC3)CC2)c1 | 110 | 6 | 155 | -1.8 | i | 0.82 | -8
Cc1ccc(Nc2nc(N)c([N+](=O)[O-])c(NCc3ccco3)n2)cc1 | 96 | -6 | 100 | 2.0 | i | 0.85 | -3
CCNc1ccc(S(=O)(=O)N(C)C)cc1[N+](=O)[O-] | 96 | -457 | 117 | / | i | 1 | -2
CCOC(=O)c1cc(-c2ccco2)nc2c1c(C)nn2-c1ccccc1 | 101 | 3 | 158 | -2.8 | i | 0.89 | 5
CCc1ccc(CN(C)Cc2nc(Cc3ccc(OC)c(OC)c3)no2)nc1 | 101 | / | / | / | i | 1.1 | 3
Cc1ccc(N(CC(O)CN(C)C)S(=O)(=O)c2ccccc2)cc1 (stereo not given) | 123 | -14 | 94 | 0.7 | i | 0.95 | -2
CSc1nc(-c2ccc(Cl)cc2)nn1C(=O)c1ccccc1 | 104 | 79* | 172* | -0.4 | i | 1 | 1
OCC1(Cc2ccccc2C(F)(F)F)CCN(Cc2ccncc2)CC1 | 94 | / | / | / | i | 1 | /
CCOC(=O)c1sc(=N)n(-c2ccc(OC)cc2)c1C | 104 | 67 | 159 | 1.2 | / | / | -20
CC1CN(C(=O)COC(=O)c2cc([N+](=O)[O-])ccc2Cl)CC(C)O1 (stereo not given) | 95 | / | / | / | i | 0.92 | 5
Cc1nn(-c2nc3ccccc3n2Cc2ccccc2)c2c1C(=O)CC(C)(C)C2 | 103 | -23 | 79 | -1.9 | i | 0.84 | -7
O=C(CN(C(=O)Cn1nnc(-c2cccs2)n1)c1ccc2c(c1)OCCO2)NCc1ccccc1 | 116 | 18 | 201 | 0.8 | i | 1.1 | -7
C/C(=N\Nc1nc2ccccc2[nH]1)c1ccc2c(c1)OCCO2 | 102 | / | / | / | i | 0.99 | 2
O=C([C@H](Cc1ccccc1)NS(=O)(=O)c1ccc(Cl)cc1)N1CC[C@@]2(O)CCCC[C@H]2C1 | 99 | -42 | 103 | 0.2 | i | 0.84 | 2
COc1ccccc1CN1CC(C(=O)N2CCN(c3ccc(F)cc3)CC2)CC1=O (stereo not given) | 94 | -35 | 63 | -1.7 | i | 0.91 | -1
CC(C)Oc1ccc(CNC(=S)N/N=C/c2cccnc2)cc1 | 101 | / | / | -0.8 | i | 0.87 | -2
COc1cc(OC)c(OC)cc1CN1CCN(Cc2cccn2C)CC1 | 105 | / | / | -1.0 | i | 0.93 | -5
Cc1ccccc1NS(=O)(=O)c1cc(C(N)=O)ccc1C | 105 | -21 | 138 | -1.6 | i | 1 | 4
O=C(NCc1ccc2c(c1)OCO2)c1ccc(Cl)c(S(=O)(=O)NCc2ccccc2)c1 | 107 | -41 | 140 | -0.2 | i | 0.83 | -1
Cn1c(SC2CCCCC2=O)nnc1-c1ccncc1 (stereo not given) | 95 | 5 | 54 | -1.1 | i | 0.93 | 4
CC(C)Cn1cc(C(=O)NCCCN2CCCC2=O)c2c3ccccc3n(C)c2c1=O | 98 | -23 | 75 | -0.7 | i | 0.92 | -8
COCCNC(=S)N1CCN(c2ccc(Cl)cc2)CC1 | 103 | / | / | / | i | 0.93 | -5
Cc1ccc(SC(C)c2nc(-c3cccnc3)no2)cc1 (stereo not given) | -457 | 14 | 118 | -0.9 | i | 0.86 | -17
CCCCn1c(=N)n(CC(O)COc2ccc(C)cc2)c2ccccc21 (stereo not given) | 103 | / | / | -1.8 | i | 0.71 | -2
CC(/C=N/NC(=O)Cn1cnc2c1c(=O)n(C)c(=O)n2C)=C\c1ccccc1 | 102 | -50 | 79 | 0.3 | i | 0.87 | 4
COc1ccc(C2=NOC(C(=O)Nc3ccc4c(c3)OCO4)C2)cc1OC (stereo not given) | 97 | / | / | / | i | 1 | -2
Cn1c(=O)c2c(nc(N3CCCCCC3)n2CC(=O)c2ccccc2)n(C)c1=O | 108 | 9 | 101 | -0.2 | i | 0.86 | 3
Cc1ccc(CSc2nnc(-c3ccncc3)n2N)cc1 | 94 | / | / | / | i | 1 | /
Cc1ccc(C(=O)Oc2ccccc2N2C(=O)C3C4CCC(C4)C3C2=O)cc1 (stereo not given) | 112 | -30 | 118 | 0.8 | i | 1 | -9
CCN(CC)CCOC(=O)c1ccc(NC(=O)c2cccc(C)c2[N+](=O)[O-])cc1 | 97 | / | / | / | i | 0.98 | -2

2 compounds from above, reduced to PKD1 kinase inh and GALR2 agonist.
SMILES | PKD1 kinase inh | GALR2 agonist
COCCNC(=S)N1CCN(c2ccc(Cl)cc2)CC1 | -5 | /
Cc1ccc(SC(C)c2nc(-c3cccnc3)no2)cc1 (stereo not given) | -17 | -0.9

The list continues:
SMILES | RGS16-Gao | Insulin prom inh | Insulin prom inh cell count | GALR2 agonist | HSV replic up | HSV replic up primary fold | PKD1 kinase inh
Cn1c(Cn2c(=O)sc3ccccc32)nnc1SCC(=O)NCc1ccccc1Cl | 101 | / | / | -0.9 | / | / | -4
O=C1CCc2cc(S(=O)(=O)N3CCCC3C(=O)NC3CCCCCCC3)ccc2N1 (stereo not given) | 86 | / | / | 1.7 | i | 0.92 | -10
COc1cccc(C(=O)N2CCN=C2SCc2cccnc2)c1OC | 66 | / | / | -0.3 | i | 0.83 | 4
Cc1ccc(-c2nnn(CC(=O)NC3CC4CCC3C4)n2)cc1 (stereo not given) | 110 | -17 | 70 | -0.9 | i | 0.97 | 1
O=C(COC(=O)c1ccccc1NC(=O)C1CC1)c1ccc2c(c1)OCCO2 | 99 | / | / | -1.0 | i | 1 | -6
CC(=O)N1N=C(c2cccs2)CC1c1ccc(C)o1 (stereo not given) | 100 | 82* | 89* | / | i | 1 | -5
Cc1cc(/C=C2\SC(=S)NC2=O)c(C)n1-c1ccccc1 | 103 | / | / | / | i | 1.1 | /
CNC(=O)/C=C/c1cccc(C(F)(F)F)c1 | 101 | 20 | 101 | -0.1 | i | 0.92 | -1
Cn1nnc(NC(=S)NC(=O)/C=C/c2ccco2)n1 | 99 | / | / | / | i | 1 | /
CCOC(=O)C1=C(C)NC(SCC(=O)Nc2cc(C)on2)=C(C#N)C1c1cccs1 (stereo not given) | 100 | -50 | 150 | -0.2 | i | 1.1 | -5
CC(C)C(=O)NC(Nc1cc(C(F)(F)F)ccc1Cl)C(Cl)(Cl)Cl (stereo not given) | 105 | -20 | 101 | -0.1 | i | 1.1 | 3
CC(C)(C)C(=O)NC(=S)NCCc1ccccc1 | 78 | / | / | -2.0 | i | 0.57 | 7
COc1ccc(-n2c(SCC(=O)NCC3CCCO3)nc3n[nH]c(C)c3c2=N)cc1 (stereo not given) | 105 | / | / | -2.3 | i | 0.9 | -9
O=C(NCCCN1CCOCC1)c1ccc2c(=O)n(CCc3ccccc3)c(=O)[nH]c2c1 | 108 | -17 | 132 | -3.2 | i | 1.1 | -7
Cc1cnc(C(=O)Nc2ccc3c(c2)CCC3)cn1 | 66 | -24 | 120 | -0.8 | i | 0.92 | -3
COC(=O)c1ccc(-c2ccco2)n1Cc1cc(C)ccc1C | 132 | -32 | 79 | -0.7 | i | 0.95 | -5
COc1ccc(OC(C)C(=O)NC2CC(C)(C)NC(C)(C)C2)cc1 (stereo not given) | 103 | -41 | 126 | -3.0 | i | 0.91 | -4
CC1Cc2ccccc2N1S(=O)(=O)c1cccc(C(=O)NCCCn2ccnc2)c1 (stereo not given) | 96 | / | / | / | i | 1.1 | 1
CCn1c(C)c(C(C)=O)c(N2CCN(c3ccc(OC)cc3)CC2)nc1=S | 94 | -10 | 105 | / | i | 1.2 | 1
CCn1cc(NC(=O)Nc2ccccc2C(=O)OC)c(C(N)=O)n1 | 78 | 49 | 90 | -0.6 | i | 1.4 | -3
CCCCc1ccc(NC(=S)Nc2ccc(Nc3ccc(OC)cc3)cc2)cc1 | 96 | / | / | -0.3 | i | 0.77 | -9
NC(=O)c1sc2nc(-c3ccccc3)c3c(c2c1N)CCCC3 | 109 | 40 | 128 | / | i | 0.97 | 12
O=C(COc1ccccc1)NC(Cc1c[nH]c2ccccc12)C(=O)O (stereo not given) | 104 | / | / | -2.2 | i | 0.98 | 4
Cc1[nH]nc2c1C(c1ccccc1F)CC(=O)N2 (stereo not given) | 65 | 21 | 135 | -1.5 | i | 1.2 | -3
O=Cc1ccc(-c2ccccc2C(=O)O)o1 | 102 | / | / | / | i | 1.1 | 0
O=C(c1ccc(Br)o1)N(c1ccccn1)C1CCCCC1 | 96 | -33 | 172 | -1.2 | i | 0.89 | -5
CSc1nnc(-c2ccc(O)cc2)n1C | 99 | / | / | -1.9 | i | 0.85 | -16
CCOC(=O)Cn1c(=O)oc2cc(S(=O)(=O)N3CCN(c4ccccn4)CC3)ccc21 | 108 | / | / | -1.9 | i | 1 | 10
Cn1c(SCc2cccc3ccccc23)nnc1-c1ccco1 | 105 | 62 | 64 | 0.5 | i | 1 | -6
CC(=O)Nc1cccc(C(=O)OCc2ccc([N+](=O)[O-])cc2)c1 | 103 | / | / | / | i | 1.1 | 3
Cc1cc(C(C)C)n2c(nc3ccccc32)c1C#N | 103 | / | / | / | i | 0.89 | -5
CCc1cccc(NC(=O)Cn2cccc2)c1 | 102 | / | / | -0.7 | i | 1.1 | 3
COc1cc(/C=N/N2C(=O)CSC2=S)cc(Br)c1O | 100 | / | / | / | ? | / | -3
Cc1ccc(CNC(=O)c2c(C)cc(=O)oc2C)cc1 | 101 | 42 | 59 | -0.6 | i | 0.97 | -7
CC1=CC(=O)C(C(C)C)=C/C1=N\OC(=O)c1cccc2nc(C)oc12 | 100 | / | / | -0.2 | ? | / | -11
COC(=O)C1Sc2[nH]c(=O)sc2C2c3ccccc3OC(=O)C12 (stereo not given) | 113 | -19 | 105 | 1.9 | i | 0.97 | -3
O=[N+]([O-])c1cc(S(=O)(=O)N2CCCC2)ccc1N/N=C1/CCCc2ccccc21 | 103 | -17 | 105 | -0.9 | i | 0.97 | -12
Cc1ccc(C)c(S(=O)(=O)Nc2cc(SCC(=O)O)c(O)c3ccccc23)c1 | 45 | 56 | 139 | -0.1 | i | 0.78 | 2
Cc1cc(C)cc(N(C(=O)C2CCCC2)C2C=CS(=O)(=O)C2)c1 (stereo not given) | 101 | / | / | 0.3 | i | 0.93 | -14
O=C(COC(=O)c1ccccc1Oc1ccccc1)NC1CCS(=O)(=O)C1 (stereo not given) | 101 | 14 | 88 | -2.5 | i | 0.9 | 2
Cc1cc(-c2n[nH]c(=S)n2Cc2ccco2)nn1C | 98 | 23 | 133 | -0.5 | i | 0.97 | -13
COc1ccccc1-c1nc(S(=O)(=O)c2ccc(Cl)cc2)c(N(C)C)o1 | 95 | -471 | 49 | -1.1 | i | 0.79 | 4
O=c1c(-c2cccc3ccccc23)[n+]([O-])c2ccccc2n1O | 94 | 46 | 56 | -1.6 | i | 1.1 | -1
CCN1CCN(C(=O)c2nn(-c3ccccc3)c(=O)c3ccccc23)CC1 | 102 | 38 | 145 | -2.5 | i | 1 | -4
COc1ccc(/C=N/NC(=O)c2cc(O)c(O)c(O)c2)cc1Cn1cc([N+](=O)[O-])cn1 | 85 | / | / | / | i | 1 | 8
CCCn1c(SCC(=O)NC)nnc1C(C)C | 103 | -17 | 143 | -0.2 | i | 0.94 | -2
CCOc1nc(-c2ccccc2O)nc2ccccc12 | 99 | -13 | 124 | -3.8 | i | 1.1 | -8
CCCCCCSc1nnc(N)s1 | 90 | / | / | / | i | 1.1 | /
O=C(CN(C1CCCCC1)S(=O)(=O)c1ccccc1)N1CCCC1 | 99 | 12 | 58 | -1.0 | i | 1 | 1
CCOc1cc2[nH]c(=O)n(CCC(=O)NCCc3ccccc3)c(=O)c2cc1OCC | 97 | -100 | 44 | -1.9 | i | 0.82 | -6
NC1CCN(c2c(F)cc3c(=O)c(C(=O)O)cn(C4CC4)c3c2Cl)C1 (stereo not given) | 90 | / | / | / | i | 0.91 | /

3 records drawn at random from those above:
SMILES | RGS16-Gao | Insulin prom inh | Insulin prom inh cell count | GALR2 agonist | HSV replic up | HSV replic up primary fold | PKD1 kinase inh
NC1CCN(c2c(F)cc3c(=O)c(C(=O)O)cn(C4CC4)c3c2Cl)C1 (stereo not given) | 90 | / | / | / | i | 0.91 | /
CCCn1c(SCC(=O)NC)nnc1C(C)C | 103 | -17 | 143 | -0.2 | i | 0.94 | -2
CCOc1cc2[nH]c(=O)n(CCC(=O)NCCc3ccccc3)c(=O)c2cc1OCC | 97 | -100 | 44 | -1.9 | i | 0.82 | -6
